Calb FLC: affects C. albicans growth with fluconazole. C. albicans CaCi-2 (fluconazole-resistant clinical isolate) + fluconazole, Alamar Blue growth, 48 h. growth inhibition, % (no concentration beside the values). 300,000 compounds, 0.57% hits. AID 1979;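 active = most replicates above 75%; inconclusive = exactly half above 75%; inactive = most below 75%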;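 note: all wells also contain fluconazole at 8 µg/ml as a sub-toxic cotreatment; 0% = median of DMSO wells and 100% = median of geldanamycin control wells; wells of about 8 µL received 7.5 nL stock; the first replicate is given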
RanGTP-Imp inh: inhibitors of RanGTP-importin-beta interaction, primary screen, biochemical, FRET, CFP-Ran, YFP-importin-beta, homogeneous. cell-free CFP-Ran/YFP-importin-beta FRET ratio. 300,000 compounds, 1.1% hits. AID 2216. inhibition, % (concentration not given with the values);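 active = most replicates above 15%; inconclusive = exactly half above 15%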;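 note: 0% = DMSO wells and 100% = Ran loaded with GDP instead of GTP; wells of about 40 µL received 100 nL stock; the first replicate is given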
UCH37 inh: blocks the human deubiquitinase UCH37 | purified proteasome/UCH37, Ub-AMC cleavage fluorescence | inhibition, % (test concentration not listed) | 330,000 compounds, 0.33% hits | AID 588478;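 active = mean of two replicates above 20%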;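 note: 0% = compound-free wells with enzyme and 100% = wells lacking proteasome; stock transfer was 100 nL into about 20 µL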
Target sequence (Q9Y5K5 whole entry, looked up): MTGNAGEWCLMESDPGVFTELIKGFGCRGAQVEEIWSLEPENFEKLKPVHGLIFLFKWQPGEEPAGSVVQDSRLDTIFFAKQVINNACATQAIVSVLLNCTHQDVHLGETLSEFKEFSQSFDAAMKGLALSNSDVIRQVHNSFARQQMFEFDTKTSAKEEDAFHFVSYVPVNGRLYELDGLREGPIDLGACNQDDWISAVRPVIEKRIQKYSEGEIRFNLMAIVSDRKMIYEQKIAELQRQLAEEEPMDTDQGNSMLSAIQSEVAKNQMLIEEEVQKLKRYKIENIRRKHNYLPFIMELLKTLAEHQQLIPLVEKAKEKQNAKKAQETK
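Material: human UCH37 enzyme supplied as purified proteasome complex / Amount: 0.15 nM proteasome as dispensed / Buffer or medium: pH 7.4 Tris-HCl (50 mM) with ovalbumin, ATP-MgCl2, DTT / Times: preincubation 30 min, reaction 25 min, room temperature / Technique: AMC fluorescence from Ub-AMC cleavage, excitation 355 nm, emission 460 nm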
LANA-H2B inh: blocks KSHV LANA binding to histone H2A/H2B; Q9QR71; inhibition, % (test concentration not listed); 320,000 compounds, 0.6% hits; cell-free LANA-H2A/H2B peptide, fluorescence polarization; in the data active = inhibition mostly above about 10%, no sharp cut-off; inactive = mostly below about 6.7%;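 note: stock transfer was 7.5 nL into about 10 µL; 0% = median of vehicle wells and 100% = median of positive control wells; one replicate is shown; the record names a cut of 25% in any replicate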
T cruzi inh: blocks replication of Trypanosoma cruzi | inhibition, % (concentration not given with the values) | AID 1885 | T. cruzi beta-gal in NIH3T3, luminescence, 90 h | 300,000 compounds, 1.4% hits;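 active = mean inhibition across valid replicates above about 55%, limit read from the data; inconclusive = mean below that limit but half or more replicates reach it; inactive = mean below it, under half of replicates reach it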;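 note: signal also drops with host cell toxicity which is not excluded here; 0% = plate median of DMSO wells and 100% = zero luminescence signal; higher percent means less beta-gal luminescence so fewer parasites; stock transfer was 50 nL into about 50 µL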
Beta cell apopt: blocks beta cell apoptosis; INS-1E cytokine-induced death, ATP luminescence, 48 h; percent of positive-control rescue, neutral wells zero; protection from apoptosis, % (test concentration not listed); 300,000 compounds, 0.8% hits; AID 435005;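 active = all replicates at 75% or more, or half of them and the mean; inconclusive = half reach 75% but not the mean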;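 note: 0% = cytokine-treated negative control wells and 100% = positive control rescue; higher means more ATP so stronger rescue from cytokine killing; wells of about 40 µL received 100 nL stock; the first replicate is given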
A1 inh: inhibitors of the anti-apoptotic protein A1, read as caspase activation; MEF A1-2A-BIM cells, Caspase-Glo 3/7 luminescence, 3 h; percent of clofoctol response, vehicle zero; caspase activation, % (no concentration beside the values); 330,000 compounds, 0.066% hits; AID 2462;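 active = over half of replicate activation scores above 10%, or exactly half above 10 with the replicate mean above 10; inconclusive = replicate mean below 10 yet half the replicates above 10; inactive = over half of replicates below 10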;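 note: wells of about 30 µL received 50 nL stock; many hits fall short of the cut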
Beta2AR agonist: activates human beta-2 adrenergic receptor causing internalization; 340,000 compounds, 0.43% hits; AID 504454; Am2.2-beta2AR cells, FAP receptor internalization, flow cytometry; reference of the scale not given here; P07550; response, % (no concentration beside the values);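 active = response above a set limit, near 3 SD of response in nonfluorescent compounds, cut at about 42% in these data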;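 note: stock transfer was 100 nL into about 11 µL; a reference agonist was the positive control; negative values mostly stem from fluorescent compounds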
Target sequence (P07550 whole entry, looked up): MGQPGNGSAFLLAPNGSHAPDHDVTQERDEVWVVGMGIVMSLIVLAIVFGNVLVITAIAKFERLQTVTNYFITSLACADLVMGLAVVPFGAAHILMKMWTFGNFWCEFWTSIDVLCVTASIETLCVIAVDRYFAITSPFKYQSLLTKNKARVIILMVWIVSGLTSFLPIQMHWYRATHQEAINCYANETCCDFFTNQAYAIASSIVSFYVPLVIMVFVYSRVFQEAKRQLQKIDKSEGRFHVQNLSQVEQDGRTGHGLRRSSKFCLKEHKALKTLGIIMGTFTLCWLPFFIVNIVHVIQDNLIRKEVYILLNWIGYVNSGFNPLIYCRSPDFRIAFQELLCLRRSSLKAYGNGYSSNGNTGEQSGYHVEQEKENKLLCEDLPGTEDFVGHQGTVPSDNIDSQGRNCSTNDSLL
* marks the source's active call; other numbers are inactive results; ? = inconclusive; . = not tested or not shown.

Structure	Calb FLC	LANA-H2B inh	RanGTP-Imp inh	A1 inh	T cruzi inh	Beta cell apopt	Beta2AR agonist	UCH37 inh
O=C(CCn1nc(-c2ccccc2)c2ccccc2c1=O)Nc1cccnc1	-5	-6.1	0.2	0.9	-4	0	-19	0.8
CCOc1ccc(N(C(=O)CNC(=O)c2ccco2)C(C(=O)NC2CCCC2)c2ccco2)cc1 (stereo not given)	0	-5.8	-2.6	0.2	-4	-5	-11	0.4
Cc1c(N(C)C(=O)c2ccccc2F)c(=O)n(-c2ccccc2)n1C	?	1.4	0.7	-0.2	-12	-1	7	-0.6
COC(=O)c1cccc(NC(=O)c2cc3ccccc3o2)c1	0	2.2	3.3	0.7	-8	-32	8	0.5
COc1ccc(-c2[nH]ncc2/C=N\NS(=O)(=O)c2ccc(Cl)cc2)cc1	2	5.5	1.5	-0.2	-5	-2	2	.
CC(C)(Cc1ccccc1)NC(=O)C(=O)c1cn(CC(=O)N2CCOCC2)c2ccccc12	-7	39*	3.8	-0.8	-5	-1	-5	3.9
COc1cc(C=O)ccc1OCC(=O)N1CCOCC1	9	5.1	3.3	-0.6	-1	0	-5	2.1
O/N=C/c1cn(-c2ccc(Cl)cc2)nn1	31	-0.9	3.3	-1.6	-8	-4	-5	.
CCN(CC)CCCNC(=O)Cn1nc(-c2ccccc2)ccc1=O	-3	7.6	0.8	0.1	-13	1	-2	-0.5
CS(=O)(=O)N(CC(=O)Nc1ccccc1C(=O)NCc1ccccc1)c1ccc2c(c1)OCCO2	7	86*	3.9	1.1	16	-3	-8	-3.4
CN(C)S(=O)(=O)N1CCC(CO)(Cc2cccc(C(F)(F)F)c2)CC1	1	5.2	-5.0	0.6	-17	-6	2	-0.2
O=C(CCCOc1ccccc1)Nc1nncs1	-10	2.3	0.0	0.5	10	2	-8	4.0
O=C(Nc1ccc2c(c1)OCCO2)C1CC(c2ccccc2Cl)=NO1 (stereo not given)	1	9.2*	-3.3	-0.8	-4	8	-6	5.8
CCOC(=O)C1CCN(Cc2nnc(-c3cccc(Br)c3)o2)CC1	0	-1.8	-0.5	-0.4	-3	-12	4	4.2
CC(=O)c1cccc(OCc2cc(C(=O)N(C)Cc3cnccn3)no2)c1	4	-6.7	0.4	-0.6	-6	1	-9	4.0
CCCn1c(C(Cc2ccccc2)NC(=O)COC)nc2ccccc21 (stereo not given)	1	1.0	1.5	0.3	-11	3	9	0.4
CC1=C(C(=O)OC(C)C)C(c2coc3ccccc3c2=O)C2=C(CCCC2=O)N1 (stereo not given)	28	0.5	.	0.9	.	-5	0	8.6
Brc1ccc(/C=N/Nc2ccc3ccccc3n2)cc1	3	2.5	-2.9	-2.8	21	-4	-6	.
Cc1c(Cl)cccc1NC(=O)CCCn1nc([N+](=O)[O-])cc1C	-12	9.9	0.7	0.8	18	-3	8	4.5
CCn1c(CNC(=O)c2cccs2)nnc1SCC(=O)Nc1cc(Cl)ccc1C	15	-2.1	12	0.7	3	2	-1	-1.4
CCOC(=O)C1CCN(S(=O)(=O)c2nc3nc(C)cc(C)n3n2)CC1	-6	2.2	0.9	-0.3	-1	3	8	-1.3
COc1ccc2nc(NNC(=O)COc3ccccc3)sc2c1	-25	-1.8	2.2	0.8	3	-3	-12	-0.4
CC(NC(=O)CSc1n[nH]c(=O)n1C1CC1)C12CC3CC(CC(C3)C1)C2 (stereo not given)	-8	1.9	0.9	0.8	-9	-2	-3	0.7
CCCCCC(=O)NNC(=O)Nc1ccccc1	0	0.6	?	0.9	-4	-3	-2	3.4
COc1ccc(Cc2nnc(Nc3c(C)cccc3C)o2)cc1OC	9	-3.0	-1.5	1.0	0	.	-7	-1.3
O=C(N/N=C/c1cccs1)c1cccc2cc[nH]c12	-35	-2.9	3.3	-1.4	-7	-8	8	.
COCCNC(=O)C(c1cccs1)N(C(=O)Cn1nnc2ccccc21)c1cccc(C)c1 (stereo not given)	12	4.8	-3.5	0.0	5	-3	-6	2.0
O=S(=O)(NC1CC1)c1ccc(S(=O)(=O)N(Cc2ccccn2)C2CC2)cc1	-2	-2.8	2.6	2.2	-2	3	-2	2.0
CCOc1cc(/C=N/N=C(/N)c2nonc2N)cc(Br)c1OCc1ccc(Cl)cc1	-5	-3.4	-1.5	0.9	29	34	-1	.
CCN(CC)C(=O)c1ccccc1NC(=O)CN1C(=O)c2ccccc2C1=O	6	.	-3.2	-1.8	-9	0	-6	4.9

The last two compounds of the part above come first, to join the parts.
Structure	Calb FLC	LANA-H2B inh	RanGTP-Imp inh	A1 inh	T cruzi inh	Beta cell apopt	Beta2AR agonist	UCH37 inh
CCOc1cc(/C=N/N=C(/N)c2nonc2N)cc(Br)c1OCc1ccc(Cl)cc1	-5	-3.4	-1.5	0.9	29	34	-1	.
CCN(CC)C(=O)c1ccccc1NC(=O)CN1C(=O)c2ccccc2C1=O	6	.	-3.2	-1.8	-9	0	-6	4.9
C=CCn1c(COc2cc(C)ccc2C(C)C)nnc1SCC(=O)c1c(N)n(C)c(=O)n(C)c1=O	18	-3.8	2.8	-0.9	15	3	4	2.1
CCCn1c(N/N=C(C)\C=C\c2ccccc2)nc2c1c(=O)[nH]c(=O)n2C	-3	1.4	-2.6	0.6	14	7	.	.
CSc1nc2ncnc(N)c2[nH]1	4	3.8	-3.2	0.9	-1	-2	-3	1.5
O=C(O)C(Cc1cc(Cl)ccc1Cl)Sc1nc2ccccc2[nH]1 (stereo not given)	4	1.9	1.9	-0.3	-9	-1	6	0.7
C[N+]1(CC(O)c2ccccc2)CCCCCC1 (stereo not given)	18	-1.0	4.1	1.3	7	-4	-4	3.0
O=C(Nc1ccc(F)cc1)c1cc(S(=O)(=O)N2CCOCC2)cs1	7	0.7	-1.8	0.8	-12	2	1	4.7
CC(=O)c1ccc(N2Cc3ccccc3/C2=N\C(=O)Nc2ccc(Cl)cc2)cc1	11	-6.3	?	-0.2	26	-11	2	.
Cc1c(CNC2CCCC2)c(C(=O)O)c(C)n1Cc1ccccc1	-6	-1.4	5.1	-0.2	12	-4	-4	0.0
COc1ccc(CNC(=O)CS(=O)(=O)Cc2nc(-c3cccc(OC)c3)oc2C)cc1	2	3.9	1.7	0.9	23	5	5	-0.3
C=CC[n+]1c(-c2ccc(Cl)cc2Cl)csc1Nc1ccc(NC(C)=O)cc1	0	-3.9	-1.5	-0.1	41	11	-1	4.4
CC(C)c1cc(=O)n2[nH]c(N)nc2n1	-5	-12	4.0	0.1	7	-22	4	1.5
COc1cccc(Nc2cc(C)c3ccccc3n2)c1	-11	-1.4	3.4	1.8	29	10	6	-52
Nc1c(C(=O)N2CCOCC2)sc2nc(N3CCOCC3)c3c(c12)CCCC3	1	-5.6	4.1	0.0	-1	2	2	-211
CCOC(=O)c1ccccc1NC(=O)COC(=O)C1=COCCO1	2	3.7	0.3	0.4	11	-6	0	0.5
Cc1ccnc(NC(=O)CN2C(=O)c3ccccc3C2=O)c1	-18	2.2	-0.2	1.0	-20	-9	-2	2.2
CC(c1ccccc1)N1C(=O)c2ccccc2C1O (stereo not given)	-1	3.2	0.4	0.5	5	-5	1	5.8
CCC1Sc2ccccc2N(CC(=O)NC2CC2)C1=O (stereo not given)	5	1.3	-0.3	0.5	4	-6	1	-0.2
Cn1c(-c2ccccc2F)cc2onc(-c3ccccc3)c2c1=O	.	-1.0	.	-9.1	.	7	-5	4.4
CCCCN1C(=O)C(O)(CC(=O)c2ccco2)c2cc(Br)ccc21 (stereo not given)	-33	6.8	9.2	-0.6	-10	8	6	1.5
Cc1nn(-c2ccc(F)cc2)c(Cl)c1/C=C(\CCC(=O)O)c1nc2ccccc2s1	44	-2.0	-0.6	-0.4	-3	29	10	4.8
COc1ccccc1-n1cnnc1SCC(=O)c1ccc[nH]1	2	-0.5	0.9	0.0	-4	-1	3	0.0
O=C(CCOc1ccccc1)Nc1ccccc1[N+](=O)[O-]	-2	1.5	0.0	-0.2	-1	-3	-7	3.5
CCOC(=O)C1CCCn2c1nc1sc3c(c1c2=O)CCCC3 (stereo not given)	-22	1.8	1.6	1.1	0	1	4	14
CCn1cc(C(=O)NCC2CCCO2)c(=O)c2cc(S(=O)(=O)N(C)C3CCCCC3)ccc21 (stereo not given)	7	5.4	?	-1.2	18	8	-3	5.3
O=c1oc(-c2cccc([N+](=O)[O-])c2)nc2ccccc12	3	1.0	-2.6	-7.4	-17	.	-2	2.7
COc1ccc(OCc2cc(C(=O)N(C)C3CCOC3)no2)c(Cl)c1 (stereo not given)	-2	-0.6	-0.3	0.4	-12	-9	-16	0.9
COc1ccc(C2=NC(CO)(CO)CO2)cc1	-17	3.5	.	?	-14	-5	-5	2.4
CCS(=O)(=O)N1N=C(c2ccc(NS(C)(=O)=O)cc2)CC1c1ccccc1 (stereo not given)	-2	-2.2	1.1	0.0	2	.	2	-13
COc1ccc(C(CC(=O)O)NS(=O)(=O)c2ccc3c(c2)N(C(C)=O)CC(C)O3)cc1 (stereo not given)	-8	4.2	?	-2.7	-6	0	2	-0.6
COc1cc(C(=O)NCC(=O)NCCN2C(=O)S/C(=C\c3ccccc3Cl)C2=O)cc(OC)c1OC	0	-0.7	-0.8	1.2	2	7	13	8.5
Cn1cccc1/C=C1/SC(=S)N(CC(=O)O)C1=O	1	-11	4.9	-0.8	5	-5	4	23*

Assay outcomes as filed in PubChem BioAssay.
